HCMV NEC inh: inhibitors of HCMV UL50-UL53 interaction, biochemical, HTRF | normalized percent inhibition | inhibition, % (no concentration beside the values) | 0.15% of 190,000 active | AID 1918969, 2023;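 active = both replicates at 50% or more, plus weaker picks with an unusually low signal ratio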;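 also: stock transfer was 100 nL into about 20 µL; 0% = negative control wells and 100% = wells with untagged competitor protein; inactives centre near -12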
* marks the source's active call; other numbers are inactive results; & = joins results of further samples. These rows are one share of the data; count on the stated rates, not on these rows.

SMILES	HCMV NEC inh
CCN(CC)S(=O)(=O)c1cccc2c(S(=O)(=O)N(CC)CC)cccc12	-20.7
O=C(CCOc1ccccc1)Nc1nc(-c2ccccn2)cs1	2.4
COCCN1C(=O)N(C)C(=O)C12CCN(Cc1cnc(-c3ccccc3)s1)CC2	9.3
Cc1ccc2cccc(S(=O)(=O)N3CCCc4ccccc43)c2n1	2.1
CN1CCC(NC(=O)c2cc(-c3c(O)cc(O)cc3Oc3ccc([N+](=O)[O-])cc3)on2)CC1	-76.4
O=C(CCSc1nnnn1-c1ccccc1)Nc1cc(C(F)(F)F)ccc1Cl	-5.7
O=C(O)CCCN1C(=O)/C(=C/c2ccc(Cl)cc2)SC1=S	-44.2
CC1=C(C(=O)Nc2ccccc2)C(c2cccs2)C(C#N)=C(SCC(=O)O)N1 (stereo not given)	-5.0
O=C(Nc1ccc(-c2cn3ccsc3n2)cc1)c1cccs1	5.5
CC(=O)NCc1ccc2[nH]c3c(c2c1)CCCC3	3.7
CC1CC(OC(=O)C(O)c2ccccc2)CC(C)(C)C1 (stereo not given)	-3.9&-66.6
CC(=O)Oc1c(Sc2ccccc2)c(C)nn1-c1ccccc1	-2.1
CCOC(=O)c1[nH]c2ccccc2c1NC(=O)CC1CCCCC1	4.3
CCN(CC)Cc1cc(Nc2ccnc3cc(Cl)ccc23)ccc1O	-22.6
CN1CCN2c3ncccc3Cc3ccccc3[C@@H]2C1	-55.9

Next part:
SMILES	HCMV NEC inh
Brc1ccc(-n2cnnc2)cc1	1.5
CCn1c(SC)nnc1-c1c[nH]c2ccccc12	-6.8
COc1cc2c(c(OC)c1OC)-c1c(cc3c(c1OC)OCO3)CC(C)C(C)C2 (stereo not given)	-23.1
Cc1ccc(S(=O)(=O)N2CCCC(C(=O)NCc3ccco3)C2)cc1 (stereo not given)	-20.2
O=C(COc1ccccc1)Nc1nc(-c2cccs2)cs1	-12.9
Cn1c(SCc2ccccc2)nnc1-c1c[nH]c2ccccc12	-10.1
CCC(CO)Nc1ncnc2nc[nH]c12 (stereo not given)	-19.0
CCCCCC(=O)/C=C/[C@@H]1[C@H](C/C=C\CCCC(=O)O)[C@H](O)C[C@H]1O	-7.3&-7.3
COC(=O)c1ccccc1NC(=O)C(F)(F)F	-12.3
O=C(c1ccc(S(=O)(=O)N2CCOCC2)cc1)N1CCCC1	-9.8
Cn1cccc1Cc1nnc(SCC(=O)NC2CCCC2)n1C	2.0
CC(C)(C)NC(=O)C1Cc2ccccc2CN1S(=O)(=O)c1cccs1 (stereo not given)	-0.2
CC(C)Sc1nnc(NC(=O)c2cc(Br)ccc2Cl)s1	-15.4
CCCCC(=O)N1CC(=O)Nc2ccc(F)cc2C1c1ccccc1 (stereo not given)	5.4
CCOC(=O)c1ccccc1NCn1nnc2ccccc21	-15.0

Following part.
SMILES	HCMV NEC inh
Cc1cc(C)n(CCCNc2ncc(C)c(-c3cnn(C)c3)n2)n1	44.0&44.0
Cc1cc2c(cc1C)NC(CC(=O)NCc1ccccc1)C(=O)N2 (stereo not given)	-17.9
NCC1OC(OC2C(CO)OC(OC3C(O)C(N)CC(N)C3OC3OC(CO)C(O)C(O)C3N)C2O)C(N)C(O)C1O (stereo not given)	-34.6
Cc1c(O)ccc2c(=O)c(-c3ccccc3)coc12	-11.0
Cc1cc(=O)[nH]c(SCc2nc3ccccn3c2Br)n1	-8.7
Cc1ccc2[nH]c(=O)c(CNS(=O)(=O)c3ccccc3)c(-c3ccccc3)c2c1	-3.7
CC(C)OC(=O)CSC1=C(C#N)C(c2ccco2)C2=C(CCCC2=O)N1 (stereo not given)	-27.8
O=C(O)CCCCCCCCCCCNC(=O)NC12CC3CC(CC(C3)C1)C2	-15.5&-15.5
CCOC(=O)/C(=C(\C)O)C1(C(C#N)C(N)=O)CCCCC1 (stereo not given)	-15.6
Cc1ccc(-c2nc3n(n2)C(=O)CC(c2ccco2)S3)cc1 (stereo not given)	9.3
Cc1nc(NC(=O)NCc2cccc(C(F)(F)F)c2)nn1C	-18.0&-18.0
C=CCn1c(C(C)NC(=O)Cc2ccccc2)nc2ccccc21 (stereo not given)	-16.2
O=c1c(=O)n(OCc2ccccc2)c2ccccc2n1O	-55.4
O=C(Cc1cscn1)c1ccc(O)cc1O	8.1&-3.7
CCC(=O)NCCSc1c(-c2ccc(OC)cc2)[nH]c2ccccc12	-19.2

Continued, overlapping the part above by 7 compounds.
SMILES	HCMV NEC inh
CCOC(=O)/C(=C(\C)O)C1(C(C#N)C(N)=O)CCCCC1 (stereo not given)	-15.6
Cc1ccc(-c2nc3n(n2)C(=O)CC(c2ccco2)S3)cc1 (stereo not given)	9.3
Cc1nc(NC(=O)NCc2cccc(C(F)(F)F)c2)nn1C	-18.0&-18.0
C=CCn1c(C(C)NC(=O)Cc2ccccc2)nc2ccccc21 (stereo not given)	-16.2
O=c1c(=O)n(OCc2ccccc2)c2ccccc2n1O	-55.4
O=C(Cc1cscn1)c1ccc(O)cc1O	8.1&-3.7
CCC(=O)NCCSc1c(-c2ccc(OC)cc2)[nH]c2ccccc12	-19.2
CCc1cc2c(=O)c(-c3csc(C)n3)coc2cc1O	-26.2
COc1ccc(N2CCN(c3ncnc4sccc34)C(C)C2=O)cc1 (stereo not given)	42.1&42.1
N#C/C(=C\c1ccc(-c2ccc(F)cc2)o1)c1ccccc1	-7.7
CCC(C(=O)NCCc1cc2c(C)ccc(C)c2[nH]c1=O)c1ccccc1 (stereo not given)	6.4
O=C(O)CSc1nnc(-c2ccc(Cl)cc2Cl)n1Cc1ccco1	-15.7
Cc1ccc2c(c1)sc(=NC(=O)Cc1cccc3ccccc13)n2C	2.1
CC(SC1=NCCS1)C(=O)Nc1nnc(-c2ccc(F)cc2)s1 (stereo not given)	-8.6
O=C(c1ccc(N2C(=O)CCC2=O)cc1)N1CCc2ccccc21	-2.5
O=C(CSc1ncnc2c1oc1ccccc12)c1ccccc1	-9.3
CCC1(CNC(=O)Nc2nc(C)ns2)CCC1	0.9
CC1CC(OCC(O)CN2CCN(c3cccc(Cl)c3)CC2)CC(C)(C)C1 (stereo not given)	-14.1
CC(C)c1ccc(S(=O)(=O)Nc2ccc(O)c(Cl)c2)cc1	-14.9
CON=C(C(=O)N[C@@H]1C(=O)N2C(C(=O)O)=C(CSC(=O)c3ccco3)CS[C@H]12)c1csc(N)n1	-12.3
O=C1Nc2ncccc2OC1CCO (stereo not given)	-3.2
O=C1CC2(CCCC2)CC(=O)N1CCCCNCC1COc2ccccc2O1 (stereo not given)	-12.5

(more compounds)
SMILES	HCMV NEC inh
O=C(CCCN1C(=O)/C(=C/c2ccccc2)SC1=S)N1CCOCC1	-14.5
COc1ccc(NC(=O)CSc2ncnc3c2oc2ccccc23)cc1	29.5
O=C(Nc1nnc(-c2ccccc2)o1)c1nc2ccccc2s1	-4.9
O=C(O)CNS(=O)(=O)c1ccc(Cl)c(Cl)c1	8.5
CC1O[C@@H](OC2C(O)C[C@H](OC3C(O)C[C@H](OC4CC[C@@]5(C)[C@H](CC[C@@H]6[C@H]5CC(O)[C@]5(C)C(C7=CC(=O)OC7)CC[C@]65O)C4)OC3C)OC2C)CC(O)C1O (stereo not given in full)	-6.2
CC(NC(=O)c1ccco1)C(c1cccs1)N1CCN(C)CC1 (stereo not given)	-7.0
CN(C)CCOC(=O)c1ccc(N2Cc3ccccc3C2=N)cc1	0.9
CCCCCCCCCCCCCCCC(=O)OCC	-12.8&-12.8
Clc1ccc(SCc2cn3cccnc3n2)cc1	2.0
CN1CCN(C(=O)c2ccc3c(c2)CCO3)CC1=O	2.5
O=C1c2cccc3cccc(c23)C(=O)N1c1ccc(O)cc1	-48.2
O=C1NC(=Nc2ccc(O)cc2)S/C1=C\c1ccc(C(=O)O)cc1	-62.2
Cc1ccc2cc(CCNC(=O)Cc3cccs3)c(=O)[nH]c2c1	-10.0
O=S(=O)(/C=C/c1ccccc1)N1CCN(c2cccc(Cl)c2)CC1	4.0
COc1ccc(NC2=CC(=O)C=CC2=O)cc1	-17.6

(next part)
SMILES	HCMV NEC inh
O=c1c(O)c(-c2ccc(O)cc2)oc2cc(O)cc(O)c12	-11.9&-19.8&-21.0
Cc1cccc(NC(=O)CCCN2C(=O)/C(=C/c3cccs3)SC2=S)c1C	-4.4
Cc1cccc(C)c1NC(=O)c1ccccc1C(=O)O	-43.4
CCOc1ccc(Nc2ncnc3nc[nH]c23)cc1	3.1
Cc1ccc(N2C(=O)N(CC(=O)C(C)(C)C)c3ccccc3S2(=O)=O)cc1	-6.3
COc1cccc(NC(=O)/C=C/c2ccc(Cl)cc2)c1	2.0
COc1ccc(NC(=O)CSc2nnc(C)n2-c2ccccc2)cc1	0.9&-12.9
COc1c(C)c2c(c(O)c1CC=C(C)CCC(=O)O)C(=O)OC2	-10.5
N#C/C(=C\c1ccc(-c2ccc(S(N)(=O)=O)cc2)o1)c1ccc(Cl)cc1	-11.3
O=C(O)CC(c1ccsc1)n1cccc1 (stereo not given)	4.4
COc1ccc(Cl)cc1S(=O)(=O)NCCN1CCOCC1	-2.9
CC(C)NCC(O)COc1ccccc1-n1cccc1 (stereo not given)	-7.1

Given with each value named: entries from further up
SMILES: N#C/C(=C\c1ccc(-c2ccc(S(N)(=O)=O)cc2)o1)c1ccc(Cl)cc1
  HCMV NEC inh: -11.3

SMILES: COc1cccc(NC(=O)/C=C/c2ccc(Cl)cc2)c1
  HCMV NEC inh: 2.0

SMILES: COc1c(C)c2c(c(O)c1CC=C(C)CCC(=O)O)C(=O)OC2
  HCMV NEC inh: -10.5

SMILES: O=C(O)CC(c1ccsc1)n1cccc1 (stereo not given)
  HCMV NEC inh: 4.4

The list continues.
SMILES	HCMV NEC inh
CCNC(=O)CC1Nc2cc(C)c(C)cc2NC1=O (stereo not given)	-7.1
CN1CCN(S(=O)(=O)c2ccc3c(c2)OCCO3)CC1	-6.4
CCOc1ccc(Cc2nc3ccccc3[nH]2)cc1	-19.7
COc1ccc(/C=N/C2=NNC(c3ccc(OC)cc3)=CS2)cc1	-19.2
CCOC(=O)Cc1csc(=S)n1-c1ccc(OC)cc1	1.6
Cc1cccc(OCC(O)CN2C(C)(C)CCCC2(C)C)c1 (stereo not given)	-9.6
CCCC(=O)Nc1nc2ccccc2s1	-3.2
CS(=O)(=O)N1CCN(CC(O)Cn2c3ccc(Cl)cc3c3cc(Cl)ccc32)CC1 (stereo not given)	14.2&-4.2
N#CNC(=NS(=O)(=O)c1ccccc1)c1ccccc1	3.8&-8.7
Cc1c(CCC#N)c(=O)n2c([nH]c3ccccc32)c1C#N	-5.0
Cn1cnnc1SC1c2cccc3cccc(c23)C1NS(C)(=O)=O (stereo not given)	-7.9&-23.6
Cc1cccn2cc(CN3CCCc4ccccc43)nc12	-10.3

Remaining list, next part
SMILES	HCMV NEC inh
O=P(O)(O)O[C@H]1[C@H](O)[C@@H](O)[C@H](OP(=O)(O)O)[C@@H](OP(=O)(O)O)[C@H]1O	-10.7&-10.7
COc1ccccc1/C=C1\N=C(c2ccco2)OC1=O	-5.6
O=C1NCCN(C(=O)c2ccc(Cl)cc2)C1Cc1ccccc1 (stereo not given)	-4.7
CCCOc1ccc(/C=C2\SC(=O)NC2=O)cc1	-29.5
CC(C)(C)c1cnnn1-c1ccc(NC(=O)c2ccc(Br)o2)cc1	6.1
COc1c(O)c2c(=O)cc(OC)c3c4c(OC)cc(=O)c5c(O)c(OC)c(C[C@@H](C)OC(=O)c6ccccc6)c(c(c1C[C@@H](C)OC(=O)Oc1ccc(O)cc1)c23)c54	-6.3
O=C(NCc1ccc(S(=O)(=O)N2CCOCC2)s1)c1cccnc1C(=O)N1CCOCC1	-8.6
CCc1ccc(CNC(=O)Nc2nc(C)n(C(C)C)n2)nc1	-16.6&-16.6
O=c1cc(CN2CCOCC2)occ1OCCCCCSc1ccnc2cc(C(F)(F)F)ccc12	-32.4
Cc1nc(-c2ccc(C(F)(F)F)cc2)sc1C(=O)NCc1ccc(OC(C)(C)C(=O)O)cc1	-29.3&-29.3
CCOC(=O)c1c(N)sc2ccccc12	-3.8
O=C(CC(c1cccs1)S(=O)(=O)c1ccccc1)c1ccc(F)cc1 (stereo not given)	-8.7

Later entries.
SMILES	HCMV NEC inh
O=S(=O)(c1cccc(-c2nc3ccccc3s2)c1)N1CCCC1	2.1
Cn1nc(-c2cccnc2)c2[nH]c(-c3ccc4c(c3)OCCO4)nc21	-8.9&-8.9
O=C1Nc2cc(C(F)(F)F)ccc2N2CCCC12 (stereo not given)	1.6
CC(C)(C)c1nnc2n1N=C(c1ccc(Br)cc1)CS2	-11.9
CCOC(=O)c1[nH]c(C)c(C(=O)N(CC)CC)c1C	-16.7
CCc1cc2c(=O)c(-c3ccc(F)cc3)c(C)oc2cc1OCC(=O)O	-1.2
CC(NC(CCc1ccccc1)C(=O)O)C(=O)N1CCCC1C(=O)O (stereo not given)	-17.0&-63.4
Cc1csc(Nc2ccccc2)[n+]1C	4.1
CCCc1c(C)c2c(OCC)cc(OCC)cc2oc1=O	-0.1
COc1ccc(C(=O)N2CCN(C(=O)c3cc(C)c(C)cc3C)CC2)cc1	11.6
CC(=O)Nc1ccc(S(=O)(=O)N2CCSC2)cc1	-9.2
COC(=O)CNC(c1ccccc1)c1cc(C)ccc1N (stereo not given)	-4.7

(more compounds)
SMILES	HCMV NEC inh
CCOC(=O)c1oc2ccccc2c1NC(=O)/C=C/c1ccccc1	-3.2
c1ccc(C(O[C@@H]2CCCN(CCc3ccc4c(c3)OCO4)C2)c2ccccc2)cc1	0.4
COC(=O)c1c(-c2ccccc2)csc1NC(=O)CCN1CCC(C)CC1	-10.2
CCCCNC(=O)[C@@H]1C[C@H](CN2CCOCC2)CN(Cc2ccc3ccccc3c2)C1	-16.9
NCCCCCNCC12CC3CC(CC(C3)C1)C2	-19.6
O=C(OCc1nc2ccccc2s1)c1cc(Cl)ccc1Cl	0.5
COc1ccc(-c2nnc(NC(=O)/C=C/c3ccccc3)o2)cc1	-9.4
